Tg IFNy HTS = T. gondii growth inhibition with IFN-gamma, primary screen, cell-based; Toxoplasma gondii growth in IFN-gamma-treated host cells; active compounds read low; reference of the scale not given here; activity change, negative = inhibition, %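 (about 20 µM by stock and volumes)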; hit rate 3.8% among 69,000;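 active = below -70%; inconclusive = fit judged invalid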;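 also: host cells are HeLa cells infected with Toxoplasma gondii; parasite growth read as luciferase light; one replicate is shown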
Active calls of the source: *; i = inactive; ? = inconclusive; & = joins results of further samples. Some of the compounds tested; rates above refer to the full screens.

The opening 2 compounds (preview)
item | Compound | Tg IFNy HTS
1 | CCC(C(=O)Nc1ccc(-c2nc(Cn3nc(C)cc3C)c(C)o2)cc1)c1ccccc1 (stereo unspecified) | -69.6
2 | NCCSc1cc(C(F)(F)F)nc2ccccc12 | -52.9

The list itself, previewed entries included:
item | Compound | Tg IFNy HTS
1 | CCC(C(=O)Nc1ccc(-c2nc(Cn3nc(C)cc3C)c(C)o2)cc1)c1ccccc1 (stereo unspecified) | -69.6
2 | NCCSc1cc(C(F)(F)F)nc2ccccc12 | -52.9
3 | O=C(Cn1c(=O)cc(C(=O)N2CCc3ccccc3C2)c2ccccc21)NCc1ccc2c(c1)OCO2 | -8.4
4 | COc1cccc(CNc2nc(-c3nnc(-c4ccc(C)cc4)o3)nc3ccccc23)c1 | -11.0
5 | COc1ccc(F)c(F)c1-c1nccn1CCCc1nn[nH]n1 | 1.0
6 | CCN(CC)C(=O)Cn1nc2n(CCOC)c3ccccc3n2c1=O | 47.3
7 | Cc1ccc(P(=O)(CSC(=N)N)c2ccc(C)cc2)cc1 | 7.1
8 | Cn1c(Oc2ccc3c(c2)OCO3)nc2c1c(=O)n(Cc1ccc(F)cc1)c(=O)n2C | -14.9
9 | CCc1nc(Cn2nc(C3CCCNC3)n(-c3ccccc3)c2=O)cs1 (stereo unspecified) | 78.3
10 | c1ccc2[nH]c(CC3CCCN(Cc4cc5n(n4)CCCNC5)C3)nc2c1 (stereo unspecified) | -44.6
11 | CCCN1CC2(C1)CN(C(=O)CN1CCOCC1)[C@H](CO)c1c2c2ccc(OC)cc2n1C | -31.8
12 | CC(C)Cc1cn(CC2CCCN(C(=O)C3=CC(=O)CC(C)(C)O3)C2)nn1 (stereo unspecified) | 3.2
13 | COC(=O)c1ccc(NC(=O)C(=O)NCCc2csc(-c3ccc(Cl)cc3)n2)cc1 | 9.5
14 | COc1c(C)cc(C(=O)N2CC(N3CCCCC3C)C2)cc1C (stereo unspecified) | 11.1
15 | CC=Cc1ccc2n(c1=O)C[C@@H]1[C@@H](CO)[C@H](C(=O)NCCc3cn(C)cn3)[C@H]2N1C(=O)C1CCC1 (mixture of isomers) | 34.8
16 | CN(Cc1nccn1C)c1ccc(-c2nccn2C)nn1 | -2.8
17 | O=C(Cn1ncc2c(N3CCCC3)ncnc21)Nc1cccc(F)c1 | 7.0
18 | O=C1NCC2(CCCN(C(=O)c3ccc4c(c3)CCCO4)CC2)O1 (stereo unspecified) | 73.3
19 | Cc1ccc(S(=O)(=O)NC(=O)OCCn2ncc3ccccc3c2=O)cc1 | -7.6
20 | Cc1ccc(-c2nc(Cn3c(=O)c4c(C(=O)N5CCCCC5)cc(C)nc4n(C)c3=O)c(C)o2)cc1 | 7.3
21 | Cn1c2[n+](c3ccc(Cl)cc3c1=O)Cc1ccccc1-2 | 13.9
22 | C[C@H](CO)N1C[C@H](C)[C@@H](CN(C)C(=O)Nc2cccc(C(F)(F)F)c2)OCc2ccccc2-c2ccccc2C1=O | -36.1
23 | COc1ccc(NS(=O)(=O)c2cc3c4c(c2)CCN4C(=O)CC3)cc1 | -15.3
24 | Cc1cc(C)c2c(=O)nc(SCc3nc(-c4ccccc4C)oc3C)n(C3CC3)c2n1 | i
25 | CNC(=O)CN1CCOCC12CCN(C(=O)CC1CCCC1)CC2 | 0.8
26 | CC(=O)Nc1cccc(C(=O)N(C/C=C/c2ccccc2)CCO)c1 | 5.5
27 | COCC1CN(Cc2csc(C)n2)Cc2cncn2C1 (stereo unspecified) | 2.7
28 | CCc1ccc(CN2C[C@H](OCC(=O)N(C)C)[C@@H]3COC[C@@H]32)o1 | 75.6
29 | O=C(Nc1cccc(-c2noc(COc3ccccc3)n2)c1)c1cccs1 | -34.0
30 | COCC(=O)Nc1ccccc1-c1cccc(CN2CCOCC2)c1 | 2.8
31 | Cc1ccc2oc(=O)n(CCc3n[nH]c(CCc4ccccc4)n3)c2c1 | -37.4
32 | COc1ccccc1C(=O)N1CCN(C(=O)Cn2nnc(-c3ccc(C)cc3)n2)CC1 | -2.2
33 | CCOCC1CN(c2ccc(C)nn2)Cc2cnn(CC)c21 (stereo unspecified) | -15.2
34 | CC(C)N1CCN(C)CC1c1nnc2ccc(C(=O)NCCc3ccccn3)cn12 (stereo unspecified) | 4.5
35 | Cc1cc(C)n(-c2cc(C(=O)N3CCC(c4ncc(C(N)=O)c(C)n4)C3)ccc2F)n1 (stereo unspecified) | 27.9
36 | CC(C)SCC(=O)N1CC[C@@H](c2ccc3c(c2)OCO3)[C@H](O)C1 | -1.6
37 | CCn1c(=O)c(-c2nc(-c3ccc(OC(C)C)cc3)no2)c(O)c2ccc(F)cc21 | 1.8
38 | CCN1c2ccccc2C(=O)NC12CCN(C(=O)Nc1ccc(C)c(C)c1)CC2 | ?
39 | O=C(N[C@H]1C[C@H]2C(=O)NCC(=O)N2C1)c1cccc(Cn2cccn2)c1 | -5.2
40 | CC1=NC2SC=C(c3ccccc3Cl)N2C(=O)C1 (stereo unspecified) | 35.9
41 | CC(=O)Nc1ccc(S(=O)(=O)N2CCN(CC(O)c3cc(C)sc3C)CC2)cc1 (stereo unspecified) | -29.1
42 | COc1ccc(-c2nc(-c3noc4ccc(C(=O)C5CC5)cc34)cs2)cc1 | -1.8
43 | COCC1c2nnn(CC3CC3)c2CCN1C(=O)C1CCOCC1 (stereo unspecified) | -8.7
44 | CCSc1nc(CC(=O)N(C)C(C)c2ccon2)cs1 (stereo unspecified) | 2.2
45 | N#Cc1cccc(C(=O)N2CCc3ncc(Cn4cccn4)n3CC2)c1 | 4.1
46 | O=C(c1cccc(Cl)c1)N1CCC2(CC1)Nc1ccccc1-n1cccc12 | 26.9
47 | CN(C)C1CCN(S(=O)(=O)c2cccc(F)c2)C(C)(C(=O)O)C1 (stereo unspecified) | 1.5
48 | CN1CCCCC1CCN1c2ccccc2Sc2ccc(S(C)=O)cc21 (stereo unspecified) | 15.5
49 | COCCN1CCC12CCN(C(=O)c1ccn[nH]1)C2 (stereo unspecified) | 20.6
50 | COCCN(C[C@@H]1[C@@H](c2ccccc2)[C@H](CO)N1C(C)=O)C(=O)c1cccnc1 | 3.4

Continuation.
item | Compound | Tg IFNy HTS
51 | C=CCNC(=S)/N=c1\sccn1C | 25.5
52 | Cc1nc(-c2cccc(F)c2)sc1CCNC(=O)c1ccc2c(c1)OCO2 | 15.5
53 | O=c1[nH]cnc2ccccc12 | 13.7&7.4
54 | CCCN(C#N)C1NC(NCC)NC(NCC)N1 (stereo unspecified) | 20.4
55 | CC(C)NC(=O)N1CCN(c2ccc3ccc(C(=O)NCC4CC4)cn23)CC1 | -3.3
56 | Cc1onc(-c2cccnc2)c1C(=O)NCc1ccc(-c2ncncc2C(=O)N(C)C)cc1 | -49.4
57 | O=C(CC1COCCN1)NCc1ccc2c(c1)OCO2 (stereo unspecified) | 6.4
58 | O=C(C1CCCCn2nnnc21)N1CCC2(CCCO2)CC1 (stereo unspecified) | -5.5
59 | CCCCC#Cc1nc(NC)c2ncn(C3OC(CO)C(O)C3O)c2n1 (stereo unspecified) | 9.5
60 | COc1ccc2c3c(n(C)c2c1)[C@@H](CO)N(C(=O)Nc1c(C)noc1C)CC31CN(CC2CC2)C1 | -17.9
61 | Cc1cccc(NC(=O)c2cc(-c3cnc(N4CCOCC4)nc3)cn2CC2CC2)c1 | -79.7*
62 | C=CCn1cc(CN2CCN(C)C3(CCN(C(=O)C(C)(C)C)CC3)C2)cn1 | -4.3
63 | Cc1ccc(S(=O)(=O)N2Cc3c(CN4CCCCC4)nn(C)c3C2)cc1F | -3.2
64 | COc1ccc(OC)c2c(C)cc(N3CCN(C)C(C(=O)O)C3)nc12 (stereo unspecified) | -7.6
65 | CN(C)CC(=O)N1[C@@H](C#N)[C@@H](c2ccccc2-c2ccccc2F)[C@@H]1CO | -51.4
66 | O=C(NCCCn1cccc1)c1c(F)cccc1F | -64.0
67 | c1cncc(CN2CCCn3nnc(CN4CCCCC4)c3C2)c1 | 127.8
68 | COc1ccc(NC(=O)N2CCCCN3[C@H](C2)[C@@H](c2ccc(-c4ccccc4F)cc2)[C@@H]3CO)cc1 | -37.5
69 | CCN(CC)c1cc(-c2ccccc2)nc(-c2ccc(Br)cc2)n1 | -36.0
70 | Cc1ccc(C(=O)NCCc2n[nH]c3c2CCCC3)cc1NC(=O)C1CC1 | -34.8
71 | Cn1cc(CN2CCC(F)(F)C3(CCN(c4cccnc4)C3)C2)cn1 (stereo unspecified) | -36.7
72 | CN1CC=C(C2CCN(C(=O)/C=C/c3ccccc3)CC2)CC1 | -11.6
73 | Cc1oc(C(C)C)cc1C(=O)NCc1csc(-c2cnccn2)n1 | 1.4
74 | CCc1nc(Cn2cnc(-c3ccccc3)c2-c2ccc(C)cc2OC)no1 | -36.9
75 | O=C(ON=C1CCN(Cc2ccccc2)CC1)c1ccc(Br)cc1 | 9.5
76 | COc1ccccc1-c1noc(Cc2ccc3c(c2)OCO3)n1 | 6.8
77 | Cc1cc(C)c(S(=O)(=O)N2CCC3(CC2)NCCN=C3NCc2ccccc2C)cc1C | -42.8
78 | CN1CCCCC1CCC(=O)NCc1cccnc1-n1cncn1 (stereo unspecified) | -4.5
79 | Cc1ccc(NC(=O)C(=O)NCCc2csc(-c3ccc(C(F)(F)F)cc3)n2)cc1F | 119.3
80 | CCc1c(C(=O)NCCc2nc(-c3cccnc3)n[nH]2)[nH]c2ccccc12 | 5.5
81 | Cc1cnc(SCC2CCCO2)nc1C1CCCN(C(=O)CSc2ccccc2)C1 (stereo unspecified) | 7.4
82 | Cc1ccc(S(=O)(=O)N2CC[C@@H]3[C@H]2c2cc(-c4cccc(C(=O)N(C)C)c4)ccc2N[C@@H]3CO)cc1 | -67.6
83 | O=C1CCC2(CCC(NC3CCOC3)CC2)N1Cc1ccccc1 (stereo unspecified) | -2.3
84 | CSc1ccc(Cl)c(C(=O)Nc2ccc3c(c2)CCC(=O)N3)c1 | -25.4
85 | O=C(Cc1ccccn1)c1ccc2nnc3ncn(Cc4ccccc4)c3c2c1 | 1.2
86 | Nc1nc(SCC(=O)N2CCc3ccccc3C2)[nH]c(=O)c1-c1ccccc1 | 250.9
87 | N#C[C@H]1N[C@H](CO)[C@@H]1c1ccc(-c2cccc(F)c2)cc1 | -20.0
88 | Cc1cccc(-c2nc(CCNC(=O)c3ccc(C)c(C)c3)cs2)c1 | i
89 | CCn1ncnc1CN1CCC(CNC(=O)c2cccc(C)c2)C1 (stereo unspecified) | -40.5
90 | CC(=O)NC(Nc1ccc(F)cc1)(C(F)(F)F)C(F)(F)F | 8.0
91 | CC(C)SC(=N)N | 18.4&-0.3
92 | Cc1oc(-c2cccc(Cl)c2)nc1CN1CCN(C)C(=O)C1 | 3.9
93 | COc1ccc(Nc2nc(-c3nnc(-c4cccc(C)c4)o3)nc3ccccc23)cc1OC | i
94 | Cn1cnnc1SCC(=O)Nc1cccc2nsnc12 | 116.3
95 | COc1ccc2cc(C3(C)NC(=O)NC3=O)ccc2c1 (stereo unspecified) | -13.8
96 | CCCn1ccnc1-c1nccn1Cc1ccccc1-n1cncn1 | -25.8
97 | CCn1c(CC2CCNCC2)nn(Cc2noc(-c3ccccc3)n2)c1=O | -4.5
98 | COc1ccc(F)cc1-c1cc(N)ncn1 | 5.3
99 | CO[C@H]1CN(C)C(=O)c2cc(NC(=O)Cc3ccccc3)ccc2OC[C@@H](C)N(C(=O)c2ccccc2F)C[C@H]1C | -11.8
100 | CC(CCc1ccco1)N(C)S(=O)(=O)c1ccc2[nH]c(=O)ccc2c1 (stereo unspecified) | 177.7

The results go on:
item | Compound | Tg IFNy HTS
101 | COC(=O)c1cc2n(n1)CCCN(C(=O)c1scc3c1OCCO3)C2 | 38.4
102 | Cc1cc(C(F)(F)F)nn1CC(=O)N1CCCC1c1cc(C(C)C)on1 (stereo unspecified) | 2.4
103 | Cc1cc(C)cc(NC(=O)CN2C(=O)CCc3cc(S(=O)(=O)N4CCOCC4)ccc32)c1 | 24.4
104 | Cn1ccnc1CN1CCC2(CC1)CCN(C(=O)c1ccccc1)C2 | 4.9
105 | O=S(=O)(NCC1CCN(S(=O)(=O)c2ccccc2)CC1)c1cccc2nonc12 | 5.7
106 | CC(NC(=O)CCNC(=O)c1ccc(F)cc1)c1cnn(-c2ccccc2)c1 (stereo unspecified) | -4.5
107 | CC(C)c1nccn1C(C)C(=O)N(C)Cc1nncn1C(C)C (stereo unspecified) | -4.3
108 | Cc1ccc(C(=O)C(O)(O)C(F)(F)F)cc1 | -48.3
109 | Cc1cccnc1CN1CC[C@@H]2OCCN(C(=O)c3ccco3)[C@@H]2C1 | 1.3
110 | Cc1cc(C)n(CCNS(=O)(=O)NCc2ccccc2)c(=O)n1 | 2.6
111 | C[C@@H]1CCCCO[C@H](CN(C)Cc2ccc(C(=O)O)cc2)[C@H](C)CN([C@H](C)CO)C(=O)c2cc(N(C)C)ccc2O1 | -21.1
112 | OC[C@H]1O[C@@H](n2cnc3c(NCc4ccco4)ncnc32)[C@H](O)[C@@H]1O | -82.9*
113 | Cc1ncccc1Oc1ncnc(N2CCCC(O)(CO)CC2)c1C (stereo unspecified) | -5.6
114 | CCc1cc(C(=O)Nc2ccc3c(c2)N(S(C)(=O)=O)CCC3)c2c(C)noc2n1 | -11.3
115 | CCn1nc(C(=O)N2CCN(c3ccccc3)CC2)c2c1CCN(C(=O)c1ccc3ccccc3c1)C2 | -12.4
116 | Cc1cnc(C(=O)N2CC[C@@H](c3sccc3C)[C@H](O)C2)cn1 | 3.8
117 | O=C(c1cncc(N2CCC(O)(CO)CC2)n1)N1CCCC1 | 1.3
118 | C/C=C/c1ccccc1[C@H]1[C@@H](CO)N(C(=O)Nc2cccc(F)c2)[C@H]1C#N | 18.8
119 | O=S(=O)(NCCc1csc(-c2ccc(F)cc2)n1)c1ccc(F)cc1F | -31.6
120 | Cc1cc(C(=O)NCc2ccc(-c3[nH]ncc3C(=O)N(C)Cc3ccccc3)cc2)on1 | -42.1
121 | Cc1ccc(-c2nc(Cn3nnc(-c4nc(-c5ccc(Br)cc5)no4)c3C)c(C)o2)cc1 | 22.1
122 | Cc1ccc2cc(CN(Cc3ccco3)S(C)(=O)=O)c(=O)[nH]c2c1 | 61.6
123 | O=C1COC2(CCN(C(=O)c3ccsc3)CC2)CN1CC1CC1 | 6.8
124 | O=C(Oc1cccc2cccnc12)c1ccccc1 | 8.7&16.7

Another view of part of the listing above.
123	O=C1COC2(CCN(C(=O)c3ccsc3)CC2)CN1CC1CC1
  Tg IFNy HTS: 6.8

124	O=C(Oc1cccc2cccnc12)c1ccccc1
  Tg IFNy HTS: 8.7&16.7

From PubChem BioAssay
